From PubChem BioAssay
UCH37 inh: human UCH37 deubiquitinating enzyme inhibition. 330,000 tested, 0.33% active. Q9Y5K5. purified proteasome/UCH37, Ub-AMC cleavage fluorescence. inhibition, % (no concentration beside the values);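 active = mean of two replicates above 20%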;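 also: 0% = compound-free wells with enzyme and 100% = wells lacking proteasome; stock transfer was 100 nL into about 20 µL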
Target sequence (Q9Y5K5 whole entry, looked up): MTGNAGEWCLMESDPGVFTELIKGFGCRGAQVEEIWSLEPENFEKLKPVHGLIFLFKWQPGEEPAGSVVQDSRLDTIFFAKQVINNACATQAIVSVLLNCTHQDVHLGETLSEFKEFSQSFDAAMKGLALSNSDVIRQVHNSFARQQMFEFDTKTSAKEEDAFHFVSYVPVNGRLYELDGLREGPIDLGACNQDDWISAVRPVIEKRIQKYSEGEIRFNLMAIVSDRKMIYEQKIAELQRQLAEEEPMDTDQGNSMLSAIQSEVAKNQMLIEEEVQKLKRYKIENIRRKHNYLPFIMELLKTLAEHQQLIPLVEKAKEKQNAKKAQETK
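assay system = human UCH37 enzyme supplied as purified proteasome complex | amount = proteasome at 0.15 nM in the dispensed enzyme solution | schedule = 30 min compound-proteasome preincubation then 25 min substrate reaction, room temperature | measured by = fluorescence, ex 355 nm, em 460 nm | benchmarks = no-proteasome wells (full inhibition) and compound-free wells (no inhibition)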
T cruzi repl: blocks replication of Trypanosoma cruzi. T. cruzi beta-gal in NIH3T3, luminescence, 90 h. inhibition, % (no concentration beside the values). 300,000 tested, 1.4% active;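 active = mean inhibition across valid replicates above about 55%, limit read from the data; inconclusive = mean below that limit but half or more replicates reach it; inactive = mean below it, under half of replicates reach it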;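 also: signal also drops with host cell toxicity which is not excluded here; 0% = plate median of DMSO wells and 100% = zero luminescence signal; higher percent means less beta-gal luminescence so fewer parasites; stock transfer was 50 nL into about 50 µL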
LANA-H2A inh: blocks KSHV LANA binding to histone H2A/H2B | cell-free LANA-H2A/H2B peptide, fluorescence polarization | inhibition, % (concentration not given with the values) | 320,000 tested, 0.6% active | AID 2629; in the data active = inhibition mostly above about 10%, no sharp cut-off; inactive = mostly below about 6.7%;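 also: stock transfer was 7.5 nL into about 10 µL; 0% = median of vehicle wells and 100% = median of positive control wells; one replicate is shown; the record names a cut of 25% in any replicate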
Calb FLC: affects C. albicans growth with fluconazole; C. albicans CaCi-2 (fluconazole-resistant clinical isolate) + fluconazole, Alamar Blue growth, 48 h; AID 1979; 300,000 tested, 0.57% active; growth inhibition, % (test concentration not listed);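 active = most replicates above 75%; inconclusive = exactly half above 75%; inactive = most below 75%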;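 also: all wells also contain fluconazole at 8 µg/ml as a sub-toxic cotreatment; 0% = median of DMSO wells and 100% = median of geldanamycin control wells; wells of about 8 µL received 7.5 nL stock; the first replicate is given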
B2AR ag: agonists of human beta-2 adrenergic receptor inducing internalization; Am2.2-beta2AR cells, FAP receptor internalization, flow cytometry; reference of the scale not given here; response, % (test concentration not listed); 340,000 tested, 0.43% active;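 active = response above a set limit, near 3 SD of response in nonfluorescent compounds, cut at about 42% in these data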;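 also: stock transfer was 100 nL into about 11 µL; a reference agonist was the positive control; negative values mostly stem from fluorescent compounds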
Target sequence (P07550 whole entry, looked up): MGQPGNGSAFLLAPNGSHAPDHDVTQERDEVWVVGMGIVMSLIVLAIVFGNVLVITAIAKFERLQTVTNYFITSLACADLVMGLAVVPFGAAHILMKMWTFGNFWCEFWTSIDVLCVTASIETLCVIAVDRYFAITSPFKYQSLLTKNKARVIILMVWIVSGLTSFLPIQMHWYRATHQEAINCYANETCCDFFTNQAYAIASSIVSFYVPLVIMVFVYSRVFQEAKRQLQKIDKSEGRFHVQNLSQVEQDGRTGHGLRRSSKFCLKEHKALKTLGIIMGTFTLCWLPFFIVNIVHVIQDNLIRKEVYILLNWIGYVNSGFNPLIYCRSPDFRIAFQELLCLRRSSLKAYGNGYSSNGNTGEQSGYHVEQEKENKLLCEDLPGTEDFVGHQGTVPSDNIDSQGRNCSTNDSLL
Beta apoptosis: blocks beta cell apoptosis; INS-1E cytokine-induced death, ATP luminescence, 48 h; percent of positive-control rescue, neutral wells zero; protection from apoptosis, % (no concentration beside the values); 300,000 tested, 0.8% active;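 active = all replicates at 75% or more, or half of them and the mean; inconclusive = half reach 75% but not the mean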;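 also: 0% = cytokine-treated negative control wells and 100% = positive control rescue; higher means more ATP so stronger rescue from cytokine killing; wells of about 40 µL received 100 nL stock; the first replicate is given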
RanGTP-Impb inh: disruptors of Ran-importin-beta complex formation – biochemical, FRET, CFP-Ran, YFP-importin-beta, homogeneous, primary screen | cell-free CFP-Ran/YFP-importin-beta FRET ratio | 300,000 tested, 1.1% active | inhibition, % (no concentration beside the values);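 active = most replicates above 15%; inconclusive = exactly half above 15%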;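 also: 0% = DMSO wells and 100% = Ran loaded with GDP instead of GTP; wells of about 40 µL received 100 nL stock; the first replicate is given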
Bfl-1 A1 inh: inhibitors of the anti-apoptotic protein A1, read as caspase activation; MEF A1-2A-BIM cells, Caspase-Glo 3/7 luminescence, 3 h; percent of clofoctol response, vehicle zero; caspase activation, % (concentration not given with the values); 330,000 tested, 0.066% active; AID 2462;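 active = over half of replicate activation scores above 10%, or exactly half above 10 with the replicate mean above 10; inconclusive = replicate mean below 10 yet half the replicates above 10; inactive = over half of replicates below 10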;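 also: wells of about 30 µL received 50 nL stock; many hits fall short of the cut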
* = called active by the depositor; i = inactive; u = inconclusive; x = not tested or not shown.

| smiles | LANA-H2A inh | Bfl-1 A1 inh | UCH37 inh | T cruzi repl | Calb FLC | Beta apoptosis | B2AR ag | RanGTP-Impb inh |
| --- | --- | --- | --- | --- | --- | --- | --- | --- |
| O=C(O)CCC(NC(=O)OCc1ccccc1)C(=O)O (stereo not given) | -1.8 | 0.5 | 0.5 | 2 | -8 | -3 | 11 | 7.4 |
| CC1(C)CC2CC(C)(CN2C(=O)c2ccccc2)C1 (stereo not given) | 1.2 | 0.8 | 0.8 | -6 | 20 | -5 | 0 | -0.7 |
| Cc1ccc(NC(=O)CSC(C)C(=O)OCC(=O)N2CCN(C(=O)c3ccco3)CC2)cc1 (stereo not given) | 1.8 | 0.1 | 2.6 | -13 | 4 | -3 | 9 | 0.1 |
| Cc1ccn2cc(C(=O)N3CCCC(Nc4ccc(F)cc4)C3)nc2c1 (stereo not given) | -4.8 | 0.8 | 0.9 | -4 | 1 | -8 | -11 | 1.9 |
| O=C(CCc1nc2ccccc2[nH]c1=O)OCC(=O)N1CCc2ccccc21 | 3.3 | -0.2 | -6.5 | -2 | -4 | -3 | -5 | -15 |
| O=C(O)c1ccc2c(c1)CCC2 | 3.9 | 0.2 | 2.4 | 3 | -1 | -2 | -7 | -2.0 |
| CCCS(=O)(=O)N1CCCC(C(=O)NCCCN(C)Cc2ccccc2)C1 (stereo not given) | 0.5 | -0.6 | -2.5 | 1 | 0 | -2 | 0 | -2.0 |
| CCOC(=O)c1c(C)[nH]c(C(=O)OC(C)C(=O)NC2CCCCC2C)c1C (stereo not given) | -1.4 | -0.3 | 2.4 | x | x | -3 | -10 | x |
| Cc1ccc(N(CCC#N)C(=O)CSc2nnc3ccccn23)cc1 | 1.7 | 0.7 | 0.8 | x | x | 2 | 1 | x |
| COc1ccc(CCNC(=O)CSc2nc(C)cs2)cc1 | -2.2 | 0.9 | 2.8 | -7 | -6 | -2 | 4 | -0.2 |
| CCOc1ccc(-c2nnc(SCC(=O)N(CC)CC)n2N)cc1 | -6.1 | -0.4 | 2.0 | -14 | 12 | 3 | 4 | 0.6 |
| O=C(Nc1cccc(S(=O)(=O)N2CCCC2)c1)c1cc(-c2ccccn2)nc2ccccc12 | 15 | -0.1 | 0.6 | 6 | -7 | 8 | 2 | 1.0 |
| O=C(O)c1oc2ccccc2c1CSCc1ccccc1 | -7.7 | 1.0 | 4.5 | -7 | 8 | -6 | 10 | 4.7 |
| Cc1noc(C)c1S(=O)(=O)N1CCC(C(=O)N2CCN(c3ccc(Cl)cc3)CC2)CC1 | 2.7 | 0.3 | 3.7 | 6 | 9 | 6 | 14 | 2.9 |
| COc1cc(C(=O)NC(=S)Nc2ccccc2[N+](=O)[O-])cc(OC)c1OC | -5.1 | -0.2 | 0.7 | -12 | 20 | 4 | -2 | 0.9 |
| CCN(c1ccccc1)S(=O)(=O)c1ccc(Oc2ccccc2C(C)=O)nc1 | -7.9 | 0.0 | -0.2 | x | x | 1 | -2 | x |
| Cc1cccnc1Oc1ncccc1N | -0.7 | 1.1 | -0.1 | -8 | -4 | 4 | -8 | 0.4 |
| CC1=C(OC(=O)c2ccccc2)C(C)(C)C(c2ccc(Br)cc2)OC1=O (stereo not given) | 5.6 | -0.2 | 3.6 | 5 | 4 | -5 | 13 | -0.3 |
| CCOC(=O)CN1C(=O)C(C)(C)Oc2ccc(C(=O)NC(C)(C)CC)cc21 | -6.2 | -0.2 | -1.3 | 1 | -13 | 3 | 9 | 0.1 |
| O=C(NCC(=O)N(CCN1CCOCC1)C(C(=O)NC1CCCC1)c1ccccc1)c1cccs1 (stereo not given) | 6.1 | 0.7 | 4.7 | -13 | 57 | -13 | -14 | u |
| CCOc1ccc(Nc2ncnc3ccc([N+](=O)[O-])cc23)cc1 | 3.9 | -0.7 | 6.8 | 59* | 1 | 0 | -12 | 1.1 |
| Cc1cc(C(=O)N(C)Cc2c(F)cccc2Cl)c2ccccc2n1 | 1.9 | 0.1 | 3.4 | -6 | -4 | 1 | -7 | 2.1 |
| O=C(Nc1ccc(NS(=O)(=O)c2ccc([N+](=O)[O-])cc2)cc1)c1ccco1 | 4.1 | 1.0 | 4.5 | 42 | -8 | -2 | -18 | 1.2 |
| CC1CCCN(C(=O)c2ccc3c(=O)n(C4CCCC4)c(=S)[nH]c3c2)C1 (stereo not given) | 0.0 | 0.6 | 4.3 | 38 | 14 | -3 | -1 | -0.1 |
| CNC(=O)c1c(NC(=O)c2ccc3ncsc3c2)sc(C)c1C | x | x | -105 | 2 | -6 | x | -6 | -3.4 |
| CC(C)CC(=O)N1CCN(c2ccc(NC(=O)c3ccco3)cc2)CC1 | -4.6 | 0.6 | 5.9 | 5 | 4 | 2 | 6 | -1.8 |
| O=C(Nc1ccc(F)cc1)N1CCN(c2nc3ccccc3s2)CC1 | 3.4 | 0.3 | -1.6 | 13 | -15 | 12 | 5 | u |
| COc1cccc(CN2CCNC(=O)C2CC(=O)NCc2cn3cccc(C)c3n2)c1OC (stereo not given) | -0.4 | 0.3 | 0.8 | -10 | -12 | -2 | -2 | 6.3 |
| O=C(NC12CC3CC(CC(C3)C1)C2)N1CCN(c2ccccc2)CC1 | 1.5 | 0.9 | 4.1 | -3 | -22 | x | 4 | -2.8 |
| COC(=O)c1ccc(NC(=O)COc2ccc3c(c2)OCO3)cc1 | 7.4 | 0.1 | 2.3 | -13 | -3 | 1 | 9 | u |
| C=CCn1c(SCC(=O)N(C)C2CCS(=O)(=O)C2)nnc1-c1ccccc1 (stereo not given) | -0.2 | 0.5 | 1.3 | -3 | -2 | x | -8 | -0.5 |
| O=C(NCc1cccnc1)/C(=N\O)c1ccccc1 | -2.5 | -0.5 | x | -12 | -2 | -8 | 13 | 0.7 |
| COc1ccc(OCc2ccc(-c3nc4ccccc4c(=O)n3N)o2)cc1 | -0.9 | -0.2 | -1.7 | 4 | 10 | 2 | 0 | 3.6 |
| C=CCn1c(=N)c(S(=O)(=O)c2ccc(C)c(C)c2)cc2c(=O)n3ccccc3nc21 | 4.2 | 0.6 | -159 | 0 | -2 | -11 | 4 | 160* |
| O=C(COc1ccccc1Cl)Nc1ccccc1C(=O)N1CCCCC1 | 9.3 | 1.1 | 0.7 | 11 | 7 | 2 | 3 | 4.2 |
| COc1ccc(-c2cc(C(F)(F)F)nc(SCCC(=O)N3CCOCC3)n2)cc1 | -2.7 | 0.7 | -1.1 | 6 | 2 | 2 | -8 | 2.0 |
| COc1ccc(C(=O)N(NC(=O)Oc2ccccc2)C(C)(C)C)cc1 | x | -0.2 | 1.5 | -10 | -5 | -6 | -6 | 1.9 |
| O=C(Nc1ccc(F)cc1)Nc1ccccc1C(=O)NCCN1CCNC1=O | -1.0 | -2.3 | 4.0 | -17 | 13 | -11 | -3 | 1.9 |
| O=C(Cn1nc(Cc2cccnc2)c2ccccc2c1=O)NCc1ccc(F)cc1 | -5.9 | 0.1 | 1.0 | 7 | -4 | 0 | -7 | 1.6 |
| COc1ccccc1C1=NOC(COC(=O)c2ccc([N+](=O)[O-])cc2)C1 (stereo not given) | 9.1 | -0.1 | 5.3 | -3 | -5 | -4 | -7 | u |
| Cc1ccnc(N2CCC(C(=O)Nc3nnc(C)s3)CC2)n1 | 2.5 | -0.1 | -9.7 | 1 | -8 | 3 | 6 | 2.4 |
| O=C(O)C(Oc1ccc2c(c1)oc(=O)c1ccccc12)c1ccccc1 (stereo not given) | 5.6 | 1.0 | i | -19 | 10 | -1 | 4 | 1.0 |
| O=C(c1c[nH]c(C(=O)C(Cl)(Cl)Cl)c1)c1ccccc1Cl | -0.9 | -0.4 | -0.1 | -13 | -9 | -10 | 1 | -0.4 |
| CC(C)OC(=O)CSc1nnc(-c2cnccn2)n1-c1ccc(Cl)cc1 | 4.3 | -0.6 | 2.5 | -4 | 5 | -1 | 4 | -2.6 |
| Cc1ccc2nsnc2c1NC(=O)c1cccc([N+](=O)[O-])c1 | -1.2 | -0.2 | x | -4 | 11 | -4 | x | -2.1 |
| Cc1cccc2cc(CN(CCCO)C(=O)Nc3cccc(Cl)c3)c(=O)[nH]c12 | -0.5 | 0.7 | 3.8 | 14 | 20 | -2 | 14 | -0.4 |
| O=C(CN1C(=O)c2ccccc2S1(=O)=O)N1CCc2ccccc21 | -0.9 | -0.4 | 0.0 | -8 | 5 | x | 20 | -0.5 |
| COc1nc(SC)nc(Cl)c1Cc1ccc(OC(C)C)cc1 | 5.0 | -0.1 | 1.3 | -4 | 7 | 3 | 7 | -0.9 |
| O=C(NNc1nc2ccccc2s1)c1ccccc1F | -0.1 | 1.2 | 2.4 | -7 | -29 | 7 | 2 | -0.2 |
| O=C(N/N=C/c1ccccc1O)/C(=C/c1ccccc1)CCO | 0.4 | 0.1 | x | -27 | -16 | 86* | -2 | -1.2 |
| CCOC(=O)[C@H]1[C@H]2COc3ccc(C)cc3[C@@H]2N2C(=O)c3cc(C)ccc3NC(=O)[C@@]12C | -4.9 | -0.3 | -0.6 | x | x | -2 | 1 | x |
| O=C(O)C1=C[C@H](c2cccs2)C[C@H](OCCCCO)O1 | -4.7 | 0.6 | -0.7 | 4 | -3 | -3 | 0 | 5.9 |
| CCc1ccc(OCc2cnc(Cl)s2)cc1 | 3.9 | -0.4 | -0.3 | -13 | -18 | -3 | -11 | 0.1 |
| CCOc1cc(/C=C2\CN(CC)C/C(=C\c3ccc(O)c(OCC)c3)C2=O)ccc1O | -2.7 | 2.0 | -2.5 | 11 | 2 | x | 29 | -3.8 |
| CC/C=C/C(=O)N1CC2(CC(c3cccc(NC(=O)c4ccccc4)c3)=NO2)C[C@@H]1C(N)=O (stereo not given in full) | -7.3 | 0.6 | 2.3 | -17 | 2 | -4 | 1 | 2.3 |
| CC(C)NC(=O)CSCc1c(Cl)cccc1Cl | -0.7 | -0.5 | 0.1 | 1 | -30 | 12 | 4 | -2.0 |
| O=S1(=O)N[C@H](c2ccccc2)C[C@H](c2ccc(C(F)(F)F)cc2)O1 | 1.2 | 0.8 | 2.1 | 8 | 11 | 2 | 10 | 1.2 |
| C=CCN1N=C(/C=C/c2ccc(OC)cc2)CCC1=O | -1.4 | -1.1 | 10 | -1 | -1 | -1 | -6 | -2.8 |
| O=C(COC(=O)c1cc(=O)[nH]c2ccccc12)NCc1cccc(Cl)c1 | -3.2 | 0.2 | -19 | x | x | -2 | 4 | x |
| CS(=O)(=O)N(Cc1ccccc1)c1ccccn1 | 2.6 | -1.4 | -1.3 | -15 | 1 | -2 | 17 | 5.6 |
| Cc1ccc2nc(/N=C(\N)NC(=O)N3c4ccccc4Sc4ccccc43)nc(C)c2c1 | 10 | 1.3 | x | 20 | -5 | -6 | -1 | 5.4 |
| CC(C)(C)OC(=O)N[C@@H](/C=C/c1ccccc1)C(=O)OC(C)(C)C | -5.8 | -0.9 | 3.1 | x | x | 6 | 3 | x |

Compounds as they come; any-hit rate near 4.3%.
